High-throughput results as filed in PubChem BioAssay.
TRPML1 inh: blocks the human TRPML1 channel | Q9GZU1 | TRPML1-inducible cells, Ca2+ dye fluorescence, FDSS; stronger effect = lower value; inhibition of EC80 agonist-evoked calcium signal | activity change, negative = inhibition, % (test concentration not listed) | actives 0.02% (n = 390,000) | AID 624415; in the data active means activity change below about -50%; inconclusive means about -30% to -50%; inactive means above about -30%;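 note: stimulus is agonist 54-4 at its EC80 concentration; % is set by controls: 0 for no effect and ±100 for the full control effect; compound concentration not given in the record; the text of the record puts the active cut at -80%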
Target sequence (Q9GZU1 whole entry, looked up): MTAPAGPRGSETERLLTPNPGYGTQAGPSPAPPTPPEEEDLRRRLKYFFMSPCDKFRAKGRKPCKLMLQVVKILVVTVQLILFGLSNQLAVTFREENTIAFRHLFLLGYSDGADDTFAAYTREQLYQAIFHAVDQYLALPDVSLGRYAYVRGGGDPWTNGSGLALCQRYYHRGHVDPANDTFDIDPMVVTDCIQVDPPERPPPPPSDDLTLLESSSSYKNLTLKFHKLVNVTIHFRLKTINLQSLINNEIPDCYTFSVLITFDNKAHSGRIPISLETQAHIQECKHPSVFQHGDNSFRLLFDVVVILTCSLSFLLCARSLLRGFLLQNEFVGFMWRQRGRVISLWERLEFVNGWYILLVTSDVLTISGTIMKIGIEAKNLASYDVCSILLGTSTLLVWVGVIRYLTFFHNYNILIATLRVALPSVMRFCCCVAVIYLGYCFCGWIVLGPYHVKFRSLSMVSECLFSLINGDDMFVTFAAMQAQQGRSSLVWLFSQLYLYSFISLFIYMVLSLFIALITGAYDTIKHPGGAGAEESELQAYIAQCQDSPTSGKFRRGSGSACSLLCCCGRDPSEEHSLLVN
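Calcium fluorescence in TRPML1-DL cells induced overnight with Tet: a 110 s read after compound pin addition, then a 110 s antagonist read after challenge with 54-4 at 4 uM final (EC80).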
gsp agonist: agonists of gsp mutant (McCune-Albright syndrome). Potency, µM (top dose mostly 76.9 µM), for inactives: at the top dose activation (cAMP increase), most hits filed as activators. gsp mutant cells, cAMP HTRF, 30 min; control for the full effect not named in the record. AID 624287. actives 0.13% (n = 340,000); active = well fitted activation curve with a large enough effect; inconclusive = small, poorly fitted or top-dose-only effect, or another doubt; inactive = no such curve, though single readings can be large or run the other way; cell line not stated here;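 note: phosphodiesterase inhibitor Ro 20-1724 added with compounds to block cAMP breakdown; potency is the fitted concentration of half-maximal effect; nearly all actives have a fitted effect of over 60% in size; about a fifth of the inactives were tested at one dose only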
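Cells stably selected in G418 were plated at 2000/well, grown 16-24 hr, then given compounds in DMSO with the PDE inhibitor […] (300 uM solution added) for 30 min at 37C; cAMP was read by HTRF.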
ClpP mod: qHTS Assay for Activators of ClpP. purified B. subtilis ClpP, FRET peptide cleavage, 20 min. Potency, µM (top dose mostly 57.5 µM), inactives show top-dose activity change, negative = active. actives 1.9% (n = 340,000). AID 651965, 2013; active = well fitted falling curve with a large enough effect; inconclusive = small, poorly fitted or top-dose-only effect; inactive = no such curve, though single readings can be large or run the other way; note: potency is the fitted concentration of half-maximal effect; the source files actives as falling curves though it sought activators and does not explain the sign; nearly all actives have a fitted effect of over 65% in size; many hits overshoot -100%
Target sequence (P80244 whole entry, looked up): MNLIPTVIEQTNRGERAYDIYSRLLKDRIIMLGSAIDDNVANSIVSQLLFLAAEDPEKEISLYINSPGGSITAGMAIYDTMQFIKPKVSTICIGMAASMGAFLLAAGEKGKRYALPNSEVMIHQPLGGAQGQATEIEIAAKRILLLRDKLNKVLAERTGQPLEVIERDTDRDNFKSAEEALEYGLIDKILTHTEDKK
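Buffer: 100 mM Tris/HCl pH8, 100 mM KCl, 0.05% low protease BSA, 2.5% glycerol, 0.01% Tween-20. ClpP 10 microg/mL final; 20 min RT; delta FRET normalized to ADEP and DMSO controls.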
gsp antag: antagonizes gsp, the McCune-Albright syndrome mutation | Potency, µM (doses to about 76.9 µM), without a hit: at the highest dose activity change, negative = inhibition, usual class: inhibitors | actives 0.4% (n = 340,000) | gsp-mutant cells, cAMP HTRF, 30 min; control for the full effect not named in the record | AID 624288; active = falling curve of any shape with a large fitted effect; inconclusive = falling curve, mostly with a smaller effect; inactive = flat or rising curve; cell line not stated here;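 note: intracellular cAMP measured with PDE inhibitor Ro 20-1724 present during compound exposure; potency is the fitted concentration of half-maximal effect; % is set by controls: 0 for no effect and ±100 for the full control effect; nearly all actives have a fitted effect of over 65% in size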
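Cells in G418 medium, seeded 16-24 h, 37C; buffer exchange to DPBS + 1 mM CaCl2, 0.5 mM MgCl2, 0.05% BSA; cpds in DMSO + […] (300 uM stock), 30 min 37C; HTRF cAMP detection.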
Menin-MLL FL inh: inhibitors of human menin-MLL interaction, wild-type MLL peptide; FP activity change, % at 61.4 µM; Fluorescence polarization, fluorescein-MLL peptide displacement from menin; AID 1766; 290,000 tested, under 10 active; inconclusive = falling polarisation curve, or a change in total fluorescence; inactive = total fluorescence flat and polarisation flat or rising; no compound was filed as active; the % refers to the polarisation; negative = inhibition;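 note: % of control where 0% means no effect; inhibitors lower the polarisation; unlabelled MLL peptide was the positive control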
TRPML1 ag: human mucolipin-1 channel agonism. AID 624414. TRPML1-expressing cells, Ca2+ dye fluorescence, FDSS; host cell line not named in the record; reference of the full effect not given here. Q9GZU1. activation, % (no concentration beside the values). actives 0.12% (n = 410,000); in the data active = activation above about 50%; inconclusive = about 30% to 50%; inactive = below about 30%; note: 0% is about no effect; the text of the record puts the active cut at 80%
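Kinetic FDSS Ca2+ read in Tet-induced TRPML1-DL cells (ABD Ca8 dye plus quencher, 45-90 min RT loading): baseline, then compound, then 110 s agonist window; EC80 agonist 54-4 at 4uM final added afterwards for a 110 s antagonist window.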
Active calls of the source: *; ? = inconclusive; . = no result given; & = joins results of further samples; [ ] = dose if it differs, or a comment.

Fields – TRPML1 inh, gsp agonist, ClpP mod, gsp antag, Menin-MLL FL inh, TRPML1 ag
CC(=O)OCC(NC(=O)C(CCCCNC(=O)OCc1ccccc1)NC(=O)OC(C)(C)C)C1OC(n2cc(F)c(=O)[nH]c2=O)C(OC(C)=O)C1OC(C)=O (configuration not stated)
  42, ., ., ., 4.2, 0.9
CCCCOc1ccc(C(=O)Oc2cccnc2)cc1
  -4, 12%, 0.2%, 12%, 1.1, 2.6
CCOC(=O)N1CCN(S(=O)(=O)c2ccc(C)cc2)C1c1ccccc1 (configuration not stated)
  -10, -24%, 0.8%, ?, 1.5, 0.9
O=C(O)c1cc(S(=O)(=O)N2CCN(C(=O)c3ccco3)CC2)c(Cl)cc1Cl
  -12, 8%[15.4 µM], ., -3%, 5.1, -0.3
O=C(O)c1cc(S(=O)(=O)N2CCOCC2)ccc1N1CCOCC1
  24, -34%[inhibitor], -2.1%, 8%, -0.4, -0.5
Cc1ccc(S(=O)(=O)Nc2cc(C)nn2-c2ccccc2)cc1
  -2, -28%, -5.0%, 4%, 2.9, 0.1
Cc1cc(Cl)ccc1Oc1ccccc1C(=O)CC#N
  20, -34%[inhibitor], -1.5%, -3%, 0.1, 1.1
CCCCSCCCNC(=O)c1cn(CC)c2ccc(S(=O)(=O)N(C)C3CCCCC3)cc2c1=O
  -10, ., -22%, ., ., 0.7
O=C(O/N=C(\c1ccccc1)c1ccncc1)c1ccccc1F
  -17, -18%[15.4 µM], ., 5%, -1.7, 1.7
CCNC(=O)CN1C(=O)NC2(CCOc3ccccc32)C1=O (configuration not stated)
  14, ?, ., 3%, 0.3, 0.5
CSc1nc(-c2ccccc2)nn1C(=O)c1ccc(C)cc1
  15, 21%, 0.4%, -6%, 4.1, 0.0
O=c1c(-c2ccco2)[n+]([O-])c2ccccc2n1OCc1ccccc1F
  3, -27%, -6.4%, -4%, 0.2, -0.1
Cc1ccccc1C(=O)NNC(=O)/C=C\C(=O)O
  ., 2%, -1.3%, 4%, 2.0, .
CN(C(=O)c1cccc(NC(=O)Cc2cccc(NC(=O)C3CCN(C(=O)C4CC4)CC3)c2)c1)C1CC1
  -12, ., 0.4%, 7%, ., -1.1
COc1cccc(NS(=O)(=O)c2csc(C(N)=O)c2)c1
  -1, 28%, 0.9%, 2%, 5.1, 0.2
Cc1cccc2cc(C#N)c(NCCNC(=S)NCCCN3CCOCC3)nc12
  9, 1%, ?, 5%, 4.2, 1.1
Cc1ccccc1NC(=O)COC(=O)CCc1c[nH]c2ccccc12
  8, 1%, -2.6%, 1%, ., 1.2
CCOC(=O)C(NCCCO)c1ccccc1 (configuration not stated)
  1, -36%[inhibitor], -0.7%, 7%, 10, 1.1
COc1cccc(NC(=O)c2sc3nc(C)c(C(=O)Nc4ccc(C)cc4C)c(-c4ccc(Br)cc4)c3c2N)c1
  -1, ., -7.6%, ., ., 0.0
COc1ccc(N(CC(=O)NCCC2=CCCCC2)S(=O)(=O)c2ccc(C)cc2)cc1OC
  -16, -10%[15.4 µM], ., ., -2.5, 0.7
CC(NC(=O)[C@H](C)NC(=O)c1ccco1)c1ccc(S(N)(=O)=O)cc1 (some centres not stated)
  2, ?, ., 0%, -3.7, 0.5
COc1ccccc1N1CCN(C2CCCCC2NS(=O)(=O)c2ccc(Cl)cc2)CC1 (configuration not stated)
  82, 20%, -5.0%, -8%, -3.3, 0.0
O=C(Cn1ncc2c([nH]c3ccccc32)c1=O)N1CCc2ccccc2C1
  -12, -23%, -5.6%, -18%, -2.4, -0.1
CCOC(=O)Cc1csc(SCn2nnc3ccccc3c2=O)n1
  0, 8%, 0.1%, 6%, -3.5, -1.2
O=C(CSc1ccccc1F)NNC(=O)c1ccncc1
  10, 25%, 2.0%, 8%, ., -0.2
CC(=O)OC1CCC(OC(C)=O)c2c1n([O-])c(C)c(C)[n+]2=O (configuration not stated)
  -14, -10%, -2.1%, -5%, 6.2, 3.9
O=S(=O)(c1ccc(Br)s1)N1CCN(c2ncccn2)CC1
  12, 4%, -2.5%, 14%, -2.4, 0.3
COc1cc(/C=N/n2cnnc2)ccc1OS(=O)(=O)c1ccccc1[N+](=O)[O-]
  -6, -2%[15.4 µM], -3.6%, 4%, -0.1, 0.2
Cc1nc(SCC#N)c2c(C)c(C)sc2n1
  -12, 15%, -0.3%, 8%, -1.6, 0.5
CN(CCO)CC(O)CN(c1ccccc1)c1ccccc1 (configuration not stated)
  -24, -29%, ?, 1%, 2.3, 0.7

Later entries.
Fields – TRPML1 inh, gsp agonist, ClpP mod, gsp antag, Menin-MLL FL inh, TRPML1 ag
CCOC(=O)c1sc(NC(=O)/C=C/c2ccc(OCC)cc2)c(C(=O)OCC)c1C
  1, ., 1.8%, ., ., -0.5
Clc1ccc(-c2noc3c2-c2nc(Cc4cccc5ccccc45)sc2CC3)cc1
  -12, ., -1.1%, 5%, ., -0.5
COc1cc(NC(=O)C2CCC(CNc3c(N4CCC(C)CC4)c(=O)c3=O)CC2)cc(OC)c1 (configuration not stated)
  5&46, -2%&-1%, 1.3%&0.5%, -29%&-14%, -1.3, 0.5&-0.5
C/C(CC(C)C)=N/Nc1ccc([N+](=O)[O-])cc1[N+](=O)[O-]
  12, -19%, 1.4%, ?, 2.2, -0.8
COC(=O)c1nc2n(n1)C(c1ccccc1OC)C1=C(CCCC1=O)N2 (configuration not stated)
  -22, -38%, -1.5%, 2%, 5.4, -0.4
CN(C)c1ccnc(-n2cccc2/C=N/OCc2cccc(F)c2)c1C#N
  -9, -5%, -12%, -14%, 1.1, 0.6
Cc1c(CN2CCC(CO)(CC3CCCCO3)CC2)cnn1C (configuration not stated)
  16, 5%[15.4 µM], ., 8%, -1.2, -0.2
O=C(Nc1ccon1)c1cccc(S(=O)(=O)N2CCCCC2)c1
  -10, -32%, 1.7%, 0%, 2.9, 1.4
COC(=O)c1ccccc1S(=O)(=O)N1CCC(C(=O)NC2CCCCC2)CC1
  7, -46%, 0.7%, 16%, ., -0.3
COc1ccc(C2C(C#N)=C(N)Oc3cc(O)ccc32)cc1 (configuration not stated)
  3, 7%, ., -14%, ., -0.8
O=C(COc1ccc(-c2nnco2)cc1)NC1CCS(=O)(=O)C1 (configuration not stated)
  14, -8%, -0.9%, 11%, ., -0.2
Cn1ncc(Cl)c1C(=O)N1CCOCC1
  14, -14%, ., 1%, 0.3, 0.2
O=C(NC1CCCCC1)c1ccc(N2CCOCC2)c([N+](=O)[O-])c1
  -3, -9%, 0.7%, 16%, -5.4, 0.7
CS(=O)(=O)c1ccc2nc(NC(=O)CN3CCN(Cc4ccccc4)CC3)sc2c1
  -3, -41%[inhibitor], -2.4%, 4%, 0.0, 1.8
CC1(C)CCSC(/C=C/c2ccccc2)=N1
  9, -2%[15.4 µM], -6.1%, 7%, -0.1, -1.6
CC(C)CSC1=NSC2=NC(=O)/C(=C\c3coc4ccccc4c3=O)C(=N)N12
  -1, 10%, ., ?, ?, ?
O=C(CCn1c(=O)oc2ccccc21)NCCCN1CCCC1=O
  -7, -17%, -1.1%, 4%, 2.9, 0.1
CCc1nn(CC(=O)NCCCN2CCc3ccccc3C2)c(=O)c2cc3sccc3n12
  2, -20%, -9.8%, 3%, 1.5, 0.4
CN(C)S(=O)(=O)c1ccc(Cl)c(NC(=O)COC(=O)/C=C/c2cnc3ccccc3n2)c1
  34, 15%, -1.5%, -17%, 3.1, -0.4
COc1ccc2cc(C(=O)C3CCCN(C(=O)c4cc(=O)n(C)c(=O)n4C)C3)ccc2c1 (configuration not stated)
  -15, -2%[15.4 µM], ., -7%, -3.0, 0.5
Cc1ccc(C(=O)NNC(=O)/C=C\C(=O)O)cc1
  -20, -4%[15.4 µM], ., 7%, 2.2, -0.8
Cc1[nH]c(=O)[nH]c(=O)c1S(=O)(=O)Nc1cccc([N+](=O)[O-])c1C
  -6, 7%[15.4 µM], 1.8%, -7%, -4.6, -1.1
O=C1CN(C(=O)c2ccccc2C(F)(F)F)C(c2ccccc2)c2cc(F)ccc2N1 (configuration not stated)
  5, ., 0.9%, ., ., 0.4
CC1CC(CCC(=O)NC(=S)Nc2ccc(Cl)cn2)C(=O)O1 (configuration not stated)
  4, -1%[15.4 µM], ., -4%, 1.6, -0.6
O=C(CCC1CCCN(C(=O)C2=CCCC2)C1)N1CCN(c2ccccn2)CC1 (configuration not stated)
  -2, -12%[15.4 µM], ., -4%, 12, 0.3
CN(C)S(=O)(=O)c1cccc(NC(=O)c2cc3ccccc3o2)c1
  1, -19%, 0.0%, ?, -1.5, 0.4
O=S(=O)(NC1=NCCCCC1)c1ccc2sc(NS(=O)(=O)c3ccc4ccccc4c3)nc2c1
  26, 1%, 1.7%, -9%, -0.3, 0.4
COc1cc2[nH]c(=S)n(NC(=O)CC(C)C)c(=O)c2cc1OC
  13, 0%, -0.8%, 6%, 0.4, 0.3
COc1ccc(C)cc1NC(=O)c1cc(S(=O)(=O)N2CCc3ccccc3C2)ccc1F
  -9, ., -21%, ., ., 0.2
CC1CCN(CCCCOc2ccc(Cl)cc2)CC1
  3, -2%[15.4 µM], ., 4%, 0.2, 1.7

Next part:
Fields – TRPML1 inh, gsp agonist, ClpP mod, gsp antag, Menin-MLL FL inh, TRPML1 ag
COc1ccc(NCc2nnc(SCC(=O)Nc3ccc(OC)cc3OC)o2)cc1
  -7, 4%[15.4 µM], -1.4%, -3%, 0.9, -1.6
CN(CC(=O)Nc1ccc(Cl)c(Cl)c1)C(=O)CNC(=O)C1CCCCC1
  -13, 11%, 0.0%, 3%, ., -0.6
CCC(Cc1ccccc1)NC(=O)Cn1cccc1C(=O)c1ccccc1 (configuration not stated)
  -5, 3%, -0.2%, -11%, ., 1.0
COc1ccc(CN2CC(C(=O)NCCCN3CCCCCC3)CC2=O)cc1 (configuration not stated)
  -3, -8%, -1.3%, 1%, -0.8, -0.4
CC(=O)Nc1ccc(NC(=O)CN2C(=O)NC3(CCCCCCC3)C2=O)cc1
  -5, 0%[15.4 µM], 1.8%, -1%, ., 0.6
CCCc1cc(=O)oc2cc(C)cc(OCC(=O)NCCCN3CCCC3=O)c12
  5, 22%, 3.3%, -5%, 1.6, -1.0
COc1ccc(CCNC(=O)c2c(O)c3cccc4c3n(c2=O)CC4)cc1OC
  -8, -29%, -9.4%, 10%, -0.5, 1.4
CCc1ccccc1NC(=O)[C@@H](c1ccccc1)N1Cc2ccccc2C1=O
  14, ., 1.8%, ., ., -0.3
CC(C)c1ccc(OCC(=O)Nc2ccc(S(=O)(=O)Nc3ccccn3)cc2)cc1
  4, -7%[15.4 µM], ., -3%, ., 1.4
O=C(Cc1ccc(Cl)cc1)NCC(=O)N1CCN(c2ccccc2)CC1
  3, -4%[15.4 µM], ., -2%, ., 0.7
CC1CCN(C(=O)CSc2nc3ccccc3c(=O)n2Cc2ccc3c(c2)OCO3)CC1
  19, -6%, -3.2%, 1%, 1.8, 1.7
CCOc1ccc(CN=C(N)N=C(N)N)cc1Cl
  -1, ?, 4.7%, 9%, 2.3, -0.6
